# Compound activity (PubChem)
# KCNQ2 enhance – enhances the rat KCNQ2 potassium channel. O88943. CHO-K1 KCNQ2, FluxOR thallium flux fluorescence; hits give high values. B-score at 10 µM. 310,000 tested, 0.54% active;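 active = fluorescence ratio B-score at least 3 SD of library B-scores, with initial fluorescence B-score within 3 SD, cut at about 5.3 in these data; same plate scores as AID 2156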;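 note: B-score of peak minus minimum over baseline fluorescence ratio after K+ and Tl+ stimulus; positive B-score means potentiation of KCNQ2 with more thallium influx and brighter signal; only the inactives scoring about 0 or higher are listed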
# Target sequence (O88943 whole entry, looked up): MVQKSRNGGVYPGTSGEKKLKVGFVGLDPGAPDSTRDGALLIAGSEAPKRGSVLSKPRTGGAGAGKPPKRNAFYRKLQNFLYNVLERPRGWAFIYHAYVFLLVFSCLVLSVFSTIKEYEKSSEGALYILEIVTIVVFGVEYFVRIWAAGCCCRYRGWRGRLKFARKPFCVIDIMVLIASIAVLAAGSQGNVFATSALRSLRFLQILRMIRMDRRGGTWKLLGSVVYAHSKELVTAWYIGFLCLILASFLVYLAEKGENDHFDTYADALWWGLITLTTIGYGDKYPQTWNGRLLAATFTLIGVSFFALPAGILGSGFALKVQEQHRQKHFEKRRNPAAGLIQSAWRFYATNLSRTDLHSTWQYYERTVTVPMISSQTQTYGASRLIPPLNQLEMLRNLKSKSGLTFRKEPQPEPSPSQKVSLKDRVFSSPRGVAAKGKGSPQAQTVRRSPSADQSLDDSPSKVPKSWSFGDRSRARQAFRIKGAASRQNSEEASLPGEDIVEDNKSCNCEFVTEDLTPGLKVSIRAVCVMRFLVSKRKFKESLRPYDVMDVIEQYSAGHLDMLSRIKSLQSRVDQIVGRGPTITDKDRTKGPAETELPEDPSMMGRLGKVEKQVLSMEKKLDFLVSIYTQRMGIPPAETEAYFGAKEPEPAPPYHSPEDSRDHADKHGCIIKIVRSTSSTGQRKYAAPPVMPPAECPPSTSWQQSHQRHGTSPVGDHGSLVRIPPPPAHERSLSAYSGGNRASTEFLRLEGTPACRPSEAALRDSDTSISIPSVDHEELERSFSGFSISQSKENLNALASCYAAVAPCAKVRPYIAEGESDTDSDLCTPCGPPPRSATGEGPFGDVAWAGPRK
# KCNQ2 enhance baseline – second read-out of KCNQ2 enhance, no call of its own (marks repeat the call); B-score; compound at 10 µM; measured here: initial fluorescence intensity artifact check;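 brightness before thallium and not channel activity; 0 = typical well and far values either way flag optical interference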
# An asterisk follows results filed as active.
SMILES,KCNQ2 enhance,KCNQ2 enhance baseline
COc1ccc(/C=N/NC(=O)Nc2ccc3nsnc3c2)c(OC)c1,2.5,-2.04
Fc1ccccc1CNC(=S)Nc1cccc(C(F)(F)F)c1,0.25,0.66
O=C(NCc1ccccc1)C1CCCN(C(=O)NCc2ccccc2)C1 (stereo not given),1.93,0.28
O=C(O)c1cccnc1Sc1ccc(Cl)cc1,0.46,-1.04
Cc1sc2nc(SCC(=O)N3CC(C)OC(C)C3)n(C)c(=O)c2c1C (stereo not given),2.22,-0.58
O=S(=O)(c1ccc(Cl)cc1)N1CCN(c2ccccn2)CC1,1.18,-0.75
COC(=O)c1cc(CC(=O)c2ccc(O)cc2O)c(C)o1,0.88,-0.01
CCCOc1ccc(-c2cnc(N)s2)cc1,0.17,0.62
CCn1cc(C(=O)N2CCN(c3cccc(Cl)c3)CC2)c2cc(OC)c(OC)cc2c1=O,0.56,0.55
Cc1cc(C)c(S(=O)(=O)N(CC(=O)NCc2cccnc2)C2CCCCC2)c(C)c1,0.5,1.81
CCOC(=O)C1CCN(C(=O)N(C)C)CC1,2.21,-2.9
CCN(CC(=O)Nc1ccc(Br)c(C)c1)CC(=O)NC(C)C,1.52,-0.45
COc1ccc(-c2nc(CN3CCC(C(=O)N4CCOCC4)CC3)c(C)o2)cc1C,0.04,0.87
O=C(c1ccco1)N1CCN(C(=O)N2CCCCC2)CC1,0.6,0.54
Cc1nnc(SCCn2c(N3CC(C)CC(C)C3)nc3c2c(=O)[nH]c(=O)n3C)s1 (stereo not given),2.01,0
CC12CCC(C(=O)Nc3cccc4ccccc34)(C1Br)C2(C)C (stereo not given),10.3*,0.06*
CC(=O)Nc1ccc(NC(=O)C2CCC(N3C(=O)C4C5C=CC(C6CC56)C4C3=O)CC2)cc1 (stereo not given),1.09,-2.45
Cc1cc(NS(=O)(=O)c2ccc(NC(=O)C(C)Oc3ccccc3Cl)cc2)no1 (stereo not given),1.14,-1.5
COc1ccc(-c2c[n+](CC(=O)OC3CC(C)CCC3C(C)C)c3n2CCC3)cc1 (stereo not given),0.47,0.48
O=C(NC(Cc1ccccc1)C(=O)O)/C(=C/c1ccc([N+](=O)[O-])cc1)NC(=O)c1ccc(Br)o1 (stereo not given),0.06,0.9
COc1ccccc1N1CCN(Cc2nc(N)nc(Nc3ccccc3)n2)CC1,3.95,-0.49
CN(CC(=O)Nc1ccc(Cl)c(Cl)c1)Cc1nnc(-c2ccc(F)cc2)o1,0.31,0.31
O=C(c1ccco1)n1nc(-c2ccccc2)nc1NCc1ccco1,0.1,0.2
CCOC(=O)Nc1ccc(NC(=O)c2ccccc2F)cc1,0.43,-0.72
O=C(CSc1nnc(-c2ccncc2)o1)N1CCc2ccccc2C1,0.05,-0.42
Nc1nc(SCC(=O)c2c(N)n(Cc3ccccc3)c(=O)[nH]c2=O)n[nH]1,1.2,-2.37
Cc1cccn2c(=O)c(C=O)c(Sc3ncccn3)nc12,0.32,1.6
O=C(NC1CC1)C1CCC(=O)N1C1CCCC1 (stereo not given),0.92,-0.69
NC(=O)c1ccccc1NC(=O)CN1CCN(Cc2ccccc2)CC1,0.01,1.88
CC(=O)c1ccc(OC(=O)N2CCOCC2)cc1,0.1,-1.76

# Grouped by structure: the entries above containing a furan ring, fused or not (4)
SMILES,KCNQ2 enhance,KCNQ2 enhance baseline
COC(=O)c1cc(CC(=O)c2ccc(O)cc2O)c(C)o1,0.88,-0.01
O=C(c1ccco1)N1CCN(C(=O)N2CCCCC2)CC1,0.6,0.54
O=C(NC(Cc1ccccc1)C(=O)O)/C(=C/c1ccc([N+](=O)[O-])cc1)NC(=O)c1ccc(Br)o1 (stereo not given),0.06,0.9
O=C(c1ccco1)n1nc(-c2ccccc2)nc1NCc1ccco1,0.1,0.2

# Continuation:
SMILES,KCNQ2 enhance,KCNQ2 enhance baseline
O=C(NNC(=O)c1ccccc1O)c1ccc(Cl)c(S(=O)(=O)N2CCCCC2)c1,0.76,-1.07
CCOc1ccc(N(CC(=O)NCCSCc2ccccc2)S(C)(=O)=O)cc1,0.96,0.04
CCCNC(=O)c1nn2c(C(F)(F)F)cc(-c3ccccc3)nc2c1Br,1.77,0.11
COc1cc(C2Nc3cc(Cl)c(S(N)(=O)=O)cc3S(=O)(=O)N2)ccc1OCc1ccccc1 (stereo not given),0.14,-0.58
O=C(c1ccc2c(c1)OCO2)C1CCCN(Cc2cccn2-c2cccnc2)C1 (stereo not given),0.02,-0.95
CCCNS(=O)(=O)c1ccc(CCC(=O)N2CCCC2)cc1,1.64,-1.17
C=CCn1cc([N+](=O)[O-])nc1C,0.02,1.25
CC(C)CCN1CCN(Cc2nc(-c3ccc(F)cc3)cs2)CC1CCO (stereo not given),1.22,-1.36
CC(NC(=O)Nc1ccc(O)cc1)(C(F)(F)F)C(F)(F)F,0.16,1.05
CCOc1ccc(Cn2c3ccc(OC)cc3c3nc4ccccc4nc32)cc1OC,1.03,-1.76

# Structures above that contain a nitro group on carbon:
SMILES,KCNQ2 enhance,KCNQ2 enhance baseline
O=C(NC(Cc1ccccc1)C(=O)O)/C(=C/c1ccc([N+](=O)[O-])cc1)NC(=O)c1ccc(Br)o1 (stereo not given),0.06,0.9
C=CCn1cc([N+](=O)[O-])nc1C,0.02,1.25

# (further entries)
SMILES,KCNQ2 enhance,KCNQ2 enhance baseline
CN(C)CCN1C(=O)C(=O)/C(=C(/O)c2ccc(S(=O)(=O)N3CCOCC3)cc2)C1c1ccccc1 (stereo not given),1.79,-1.4
CC(=O)Nc1ccc(OC(F)(F)C(F)C(F)(F)F)c(NC(C)=O)c1 (stereo not given),0.69,-0.66
Cc1cccc(NC(=S)NNC(=O)c2sccc2C)c1,0.32,-1
Cc1cc(C)c(C(=O)/C=C/c2cccs2)c(=O)[nH]1,0.39,-3.25
NNC(=O)COc1cccc(Oc2ccccc2)c1,0.63,0.5
C=C1CCN([C@H](C(=O)NCc2ccccc2)C(C)C)S(=O)(=O)c2ccccc21,3.48,0.19
CC(C)Oc1cccc(C(=O)NC(=S)Nc2ccc(Cl)c(C(=O)O)c2)c1,1.14,-0.45
NC(=O)c1c(NC(=O)c2ccc(S(=O)(=O)N3CCOCC3)cc2)sc2c1CCCCC2,0.53,-0.42
COc1cc(CNc2nc3ccccc3[nH]2)cc(OC)c1OC,1.07,-2.02
CCOC(=O)c1c(NC(=O)c2ccnn2C)sc(C)c1C,0.4,0.93
CCOc1ccc(-c2nnc(-c3ccccc3)o2)cc1,0.09,-0.77
Cc1ccc(S(=O)(=O)N2CCN(c3ccc([N+](=O)[O-])cn3)CC2)cc1,1.45,-0.58
COc1ccc(Nc2cc(C)nc(N)n2)cc1,1.76,0.66
O=C(Nc1ccc2c(c1)nc1n2CCN(Cc2ccccc2)C1)NC1CCCCC1,0.57,1.17
CCCOc1cccc(-c2nnc(NC(=O)c3ccco3)s2)c1,0.47,1.27
N#Cc1c(Cl)cccc1N1CCC(C(N)=O)CC1,1.4,-1.94
C[C@@H]1CC=C[C@H]2[C@H]1C(=O)N(Cc1ccccc1)[C@H]2c1ccc(Br)cc1F,0.68,3.01
CC1=Nc2nc(N3CCCCCC3)c(C#N)c3c4c(nc(c23)N1)N(c1ccc2ccccc2c1)C(=O)C4,2.43,-0.36
O=[N+]([O-])c1cccc(S(=O)(=O)NCc2ccncc2)c1,2.27,-0.44
CC(C)c1onc(C(=O)NC2CCCC2)c1[N+](=O)[O-],0.64,-0.68
O=C(Cc1ccc([N+](=O)[O-])cc1)N/N=C/c1ccco1,0.6,1.53
CCc1nc2ccc(C(=O)O)cc2nc1CC,1.73,1.14
Cc1cccc(C(=O)Nc2cccc(C(=O)N/N=C/c3cccc(C)n3)c2)c1,2.58,0.51
COc1ccc(CCNC(=O)CSc2nc(N)c(C#N)c(-c3cccs3)c2C#N)cc1OC,0.35,0.26
COCCNc1nc2ccccc2n1CC(=O)c1ccc(OC)c(OC)c1,0.93,-0.78
Cc1ccc(-c2n[nH]c(=S)n2/N=C\c2ccco2)cc1,0.37,-0.21
CCC(C)Nc1nc2c(c(=O)[nH]c(=O)n2C)n1CCC(C)C (stereo not given),0.89,0.62
CN1CCCN(C(c2ccccc2)c2ccc(Cl)cc2)CC1 (stereo not given),0.42,0.93
N#Cc1c(NC(=O)C2CC(Cl)=CCC2C(=O)O)sc2c1CCCC2 (stereo not given),0.33,1.29
Cc1ccccc1OCCCC(=O)Nc1nccs1,0.83,2.26
Cc1ccc(C)c(S(=O)(=O)N2CCCC2CNC(=O)C(=O)NCCc2ccco2)c1 (stereo not given),0.01,-1.28
Cc1ccc(C(=O)Nc2cccc(N(C)S(C)(=O)=O)c2)cc1S(=O)(=O)Nc1ccccc1,1.58,0.32
CCOc1ccc(-c2n[nH]c(=S)n2/N=C/c2cc3c(cc2[N+](=O)[O-])OCO3)cc1,1.58,0.41
COC(=O)c1cc(NC(=O)Nc2ccccc2)ccc1Cl,0.91,0.93
O=C(CSc1ncn[nH]1)NCCc1ccc(Cl)cc1,1.18,0.3
Cc1cc(N2CCN(S(=O)(=O)c3ccc4c(c3)OCCO4)CC2)n2ncnc2n1,0.53,-2.48
O=C(CON=C1c2ccccc2-c2ccccc21)NC12CC3CC(CC(C3)C1)C2,0.1,0.42
CC(=O)N1N=C(c2cccnc2)OC1c1ccc(C(C)C)cc1 (stereo not given),0.17,-3.08
Fc1ccc(-c2csc(-c3cccnc3)n2)cc1F,0.02,-0.46
COc1ccc2c(c1)C1CC(C)(NC(=O)C1C(=O)c1ccccc1)O2 (stereo not given),1.29,-2.39
O=C(CN(c1ccc(Cl)c(C(F)(F)F)c1)S(=O)(=O)c1ccccc1)N/N=C/c1cccc2c1OCCO2,1.94,-1.7
O=C(c1cccnc1)N1N=C(C2CC2)CC1(O)C(F)(F)F (stereo not given),1.57,-0.94
COC(=O)c1ccc(S(=O)(=O)c2ccccc2)c(N)c1,1.1,-0.03
O=C(CN1C(=O)NC2(CCCC2)C1=O)Nc1nc2ccccc2s1,1.28,-1.33
CN(CC(=O)N1CCN(Cc2ccccc2)CC1)S(=O)(=O)c1ccc(F)cc1,0.02,-0.71
Cc1ccc(OCC(=O)Nc2ccc3c(c2)C(=O)NC3=O)c(C)c1,0.01,-1.16
COc1ccc(C(=O)N/N=C/c2ccc(OC)c(COc3ccccc3)c2)cc1,0.71,0
COc1cccc(/C=N/NC(=O)C(C)Cn2cnc3ccccc32)c1 (stereo not given),0.08,-1.24
Cc1ccc(S(=O)(=O)NCC(=O)N(CC(=O)NCc2ccco2)Cc2ccc3c(c2)OCO3)cc1,0.79,-1.23
O=C1NC(=O)/C(=C\c2ccccc2OCc2ccc([N+](=O)[O-])cc2)N1,1.43,0.7
# (list continues)
SMILES,KCNQ2 enhance,KCNQ2 enhance baseline
C/C(=C/C(=O)N1CCN(C)CC1)C(=O)O,1.37,0.28
Cc1ccc2oc(C(=O)NCc3ncc(C)[nH]3)c(C)c2c1,0.23,-0.58
C#CC(C)OC(=O)Nc1cnccc1C(F)(F)F (stereo not given),0.45,1.9
Cc1ccccc1C(=O)NCCN1CCOCC1,0.02,-0.12
Cc1cccc(/C=N/n2c(-c3ccccn3)n[nH]c2=S)c1,0.82,-2.87
Cc1ccc(NC(=O)C(C)N2C(=O)c3ccccc3C2=O)c(C)c1 (stereo not given),2.52,-1.61
CCOc1cc(C(=O)Nc2ccc3c(c2)OCO3)ccc1OC(F)F,0.73,-0.48
CCOC(=O)C1C(=O)NC(N2CCN(CC)CC2)=NC1c1ccccc1 (stereo not given),0.09,1.78
O=C(CCCC(=O)OCC(=O)c1ccc(Cl)cc1Cl)Nc1cc(C(F)(F)F)ccc1Cl,0.52,0.07
Cc1cc(NC(=O)COC(=O)C2CC(=O)N(c3cccc(Cl)c3)C2)no1 (stereo not given),0.38,-0.05
Nn1c(-c2ccc(F)cc2)nc2ccccc2c1=O,0.34,0.87
O=C(CCN1CCOCC1)NNC(=O)/C(=C/c1ccccc1)NC(=O)c1ccccc1,1.54,0.12
COc1ccc(-c2c(NC(=O)c3ccco3)oc3ccccc3c2=O)cc1OC,0.15,0.3
Cc1cc(-n2nc(C)cc2C)nc(NS(=O)(=O)c2ccccc2Cl)n1,0.22,-0.85
O=C(CN1CCN(c2ncccn2)CC1)N(Cc1ccccc1)c1ccc(F)cc1,0.46,0.48
O=C(CSCC(=O)Nc1nc(-c2ccc3c(c2)OCO3)cs1)Nc1nccs1,0.17,1.58
O=C(NC1CC(=O)N(c2ccccc2)C1)C1CC1 (stereo not given),1.23,-0.02
Cc1c(NC(=O)COC(=O)/C=C/c2ccc(Cl)cc2)c(=O)n(-c2ccccc2)n1C,0.06,-0.03
CCCCc1ccc(NC(=O)CC(C)=O)cc1,1.02,-1.53
CCN(CC)CCN(C(=O)/C=C/c1cccs1)c1nc2ccc(F)cc2s1,0.25,-0.01
CC(C)(C)Nc1nc(NN)nc(NC(C)(C)C)n1,0.22,-1.06
O=C1c2ccccc2C(=O)N1c1cccc2cccnc12,1.25,-1.46
Cc1cccc(C(C)C)c1NC(=O)C(C)OC(=O)Cn1cnc2c1c(=O)n(C)c(=O)n2C (stereo not given),0.33,-0.95
O=C(Nc1nccs1)c1ccc(S(=O)(=O)NCC2CCCCC2)cc1,0.44,0.53
COc1ccccc1-c1c(C)nn2c(C)c(C(C)=O)cnc12,2.72,-2.83
Cc1nc2nc(SCC(=O)NCCCN3CCOCC3)nn2c(C)c1Cc1ccccc1,0.12,-0.13

# Molecules shown so far with a cyano group (four):
SMILES,KCNQ2 enhance,KCNQ2 enhance baseline
N#Cc1c(Cl)cccc1N1CCC(C(N)=O)CC1,1.4,-1.94
CC1=Nc2nc(N3CCCCCC3)c(C#N)c3c4c(nc(c23)N1)N(c1ccc2ccccc2c1)C(=O)C4,2.43,-0.36
COc1ccc(CCNC(=O)CSc2nc(N)c(C#N)c(-c3cccs3)c2C#N)cc1OC,0.35,0.26
N#Cc1c(NC(=O)C2CC(Cl)=CCC2C(=O)O)sc2c1CCCC2 (stereo not given),0.33,1.29

# Some of the compounds tested; the hit share may differ from the screen's.
